GRP78 ERSR act: qHTS for Inducers of the Endoplasmic Reticulum Stress Response (ERSR) in Human Glioma: qHTS; U87-MG GRP78 promoter luciferase reporter, 16 h; Potency, µM, without a hit: top-dose activation, most hits filed as activators; 420,000 compounds, 0.02% hits; AID 602332, 2012; note: potency is the fitted concentration of half-maximal effect; series mostly up to about 76 µM; % of control where 0% means no effect; nearly all actives have a fitted effect of over 35% in size
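Stably transfected U87-MG glioma cells carrying a GRP78-based luciferase sensor; 16 h compound incubation. Luminescence end-point read 10 min after Bright-Glo addition at room temperature.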
D2 PAM: HTS Assay for Positive Allosteric Modulators of the Human D2 Dopamine Receptor: Primary Screen for Potentiators. D(2) dopamine receptor (Homo sapiens), P14416. HEK293 T-REx D2, calcium flux, EC20 dopamine potentiation. potentiation, % at 10 µM. 340,000 compounds, 0.34% hits. AID 485347, 2010;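 active = potentiation over 3 SD above the plate norm, cut at about 30% in these data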; note: 0% is about no effect
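Primary screen. Calcium kinetics in induced HEK293 T-REx D2 cells: compound pre-addition 180 s, EC20 dopamine, 180 s more.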
Vif-A3G inh: qHTS for Inhibitors of Vif-A3G Interactions: qHTS. DNA dC->dU-editing enzyme APOBEC-3G (Homo sapiens), Q9HC16. HeLa A3G-eYFP + Vif (tagged APOBEC3G with the HIV-1 protein that degrades it), YFP fluorescence, overnight. Potency, µM (highest dose often 46.1 µM), for the others: at the top dose activity, negative = active, most hits filed as inhibitors. 410,000 compounds, 0.076% hits;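 note: potency is the fitted concentration of half-maximal effect; % is set by controls: 0 for no effect and ±100 for the full control effect; nearly all actives have a fitted effect of over 60% in size; hits raise eYFP signal because A3G escapes Vif-driven loss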
Target sequence (Q9HC16 whole entry, looked up): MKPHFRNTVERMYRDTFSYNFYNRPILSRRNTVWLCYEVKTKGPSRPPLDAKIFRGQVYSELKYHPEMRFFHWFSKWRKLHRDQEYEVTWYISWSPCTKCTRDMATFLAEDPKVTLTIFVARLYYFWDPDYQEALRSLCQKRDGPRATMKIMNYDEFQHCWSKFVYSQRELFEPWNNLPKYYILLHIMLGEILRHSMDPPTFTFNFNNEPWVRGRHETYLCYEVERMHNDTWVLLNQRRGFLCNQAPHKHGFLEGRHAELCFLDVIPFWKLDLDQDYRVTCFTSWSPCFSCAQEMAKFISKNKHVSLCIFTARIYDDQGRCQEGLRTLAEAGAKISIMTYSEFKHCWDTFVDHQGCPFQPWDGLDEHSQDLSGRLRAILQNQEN
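Read-out is eYFP fluorescence (Ex 488/Em 500-530) from Vif-expressing HeLa A3G-eYFP cells; more signal means A3G escaped Vif-mediated degradation. Cells plated overnight, compound pinned in, incubated overnight at 37 deg C.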
D1 ag: Allosteric Agonists of the Human D1 Dopamine Receptor: qHTS. D(1A) dopamine receptor (Homo sapiens), P21728. HEK293 T-REx D1 cells, calcium flux, agonist mode. activation, % at 2 µM. 360,000 compounds, 1% hits; in the data active = activation above about 30%; note: 0% is about no effect
Target sequence (P21728 whole entry, looked up): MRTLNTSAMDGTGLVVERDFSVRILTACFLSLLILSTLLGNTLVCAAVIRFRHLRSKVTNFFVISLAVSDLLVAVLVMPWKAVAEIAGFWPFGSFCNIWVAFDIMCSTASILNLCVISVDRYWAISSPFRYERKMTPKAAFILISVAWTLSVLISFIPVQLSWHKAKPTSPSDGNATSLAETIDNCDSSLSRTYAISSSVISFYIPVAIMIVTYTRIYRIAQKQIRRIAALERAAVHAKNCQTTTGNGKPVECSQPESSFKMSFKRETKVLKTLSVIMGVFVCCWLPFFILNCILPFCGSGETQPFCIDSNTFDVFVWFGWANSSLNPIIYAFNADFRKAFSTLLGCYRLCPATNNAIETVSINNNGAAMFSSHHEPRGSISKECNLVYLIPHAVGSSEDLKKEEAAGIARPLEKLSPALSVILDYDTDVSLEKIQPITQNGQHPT
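Tetracycline-induced HEK293 TREx D1 cells, force-coupled to calcium signalling, were dye-loaded with a no-wash calcium kit. Compound was pin-added after a 10 s baseline. Fluorescence was read kinetically at 1 cycle/s for 180 s, with calcium rises flagged as agonism.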
Vif-APOBEC3F blk: qHTS for Inhibitors of Vif-A3F Interactions: qHTS. HeLa A3F-eYFP + Vif (tagged APOBEC3F with the HIV-1 protein that degrades it), YFP fluorescence increase. Potency, µM (top dose mostly 46.1 µM), for the others: top-dose activity, negative = active. 390,000 compounds, 0.2% hits. AID 602313, 2012; note: potency is the fitted concentration of half-maximal effect; % of control where 0% means no effect; nearly all actives have a fitted effect of over 65% in size
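HeLa cells stably expressing A3F-eYFP plus Vif, plated and incubated overnight at 37 deg C, then exposed to compounds overnight at 37 deg C. Blocked degradation read as raised yellow fluorescence (Ex 488/Em 500-530).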
D1 PAM: Potentiators of Human D1 Dopamine Receptor: qHTS; D(1A) dopamine receptor (Homo sapiens), P21728; HEK293 TREx D1 cells, calcium flux, dopamine EC20 potentiation; potentiation, % at 10 µM; 360,000 compounds, 0.036% hits; AID 504651, 2011; in the data active = potentiation above about 30%; note: 0% is about no effect
D1 antagonist: Antagonist of Human D 1 Dopamine Receptor: qHTS | HEK293 TREx D1 cells, calcium flux, dopamine EC80; stronger effect = lower value | activity change, negative = inhibition, % at 10 µM | 360,000 compounds, 3.2% hits | AID 504652, 2011; in the data active = activity change below about -30%; note: % is set by controls: 0 for no effect and ±100 for the full control effect
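After overnight tetracycline induction at 30 C, force-coupled D1 HEK293 cells took up a no-wash calcium dye at room temperature. Compounds were added and monitored 180 s, and the response to EC80 dopamine was then recorded.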
Starred values were filed as active, the others as inactive; ? = inconclusive; . = no result given. Unless noted, calls come from the whole dose curve; as a rule, active = well fitted curve in the direction sought with a large enough effect; inconclusive = small, poorly fitted or top-dose-only effect, or another doubt; inactive = no such curve, though single readings can be large; an effect the other way counts as inactive or inconclusive. Not all compounds are listed, so the mix of outcomes need not match the whole.

smiles,GRP78 ERSR act,D2 PAM,Vif-A3G inh,D1 ag,Vif-APOBEC3F blk,D1 PAM,D1 antagonist
CC(=O)c1ccc(NC(=O)c2sc(-n3nc(C)c(Cc4ccccc4)c3C)nc2C)cc1,-3.0%,-5.1,-3.0%,1.4,-0.6%,-1.6,-23.9
COCC(C)NS(=O)(=O)c1ccc(NC(=O)C(Cc2ccccc2)NC(N)=O)cc1 (configuration not stated),-3.6%,.,-0.2%,0.0,1.1%,-6.5,-4.4
O=C(NC1CCCCC1)C(c1cccs1)N(C(=O)c1ccccn1)c1ccccc1 (configuration not stated),-5.0%,-4.3,-3.2%,0.2,-24.6%,-8.9,8.1
COc1ccc(CN2C(=O)c3cccnc3C2=O)cc1S(=O)(=O)N1CCCCC1,-0.7%,-4.7,2.2%,3.6,-12.8%,-7.7,-18.4
Cc1ccc(OCCCC(=O)Nc2ccc(S(N)(=O)=O)cc2)cc1,-2.6%,1.9,-0.1%,-3.8,?,6.2,23.5
Cc1ccc(CNc2cc(-c3nn4c(C)nnc4s3)ccc2C)s1,0.4%,.,-11.3%,3.6,-11.3%,2.0,8.4
COc1ccc(NC(=O)CSc2nc(-c3cccs3)cc(C(F)(F)F)c2C#N)cc1,-2.4%,17.7,-8.9%,13.9,?,1.5,-3.0
COc1ccc(CN(CCC(c2ccco2)C(C)C)C(C)=O)cc1OC (configuration not stated),-4.6%,9.9,-1.2%,2.9,-4.5%,1.1,2.6
c1cc(C(c2nnnn2C2CCCC2)N2CCOCC2)ccn1 (configuration not stated),1.4%,-7.1,1.0%,2.2,-2.3%,-1.5,7.7
O=C(CSc1nnc2ccc(-c3ccccn3)nn12)NCC1CCCO1 (configuration not stated),-3.1%,5.9,-0.2%,1.8,-6.9%,-4.5,-15.3
Cc1nc(SCC2(C)CC2(Cl)Cl)n[nH]1 (configuration not stated),-2.9%,-4.6,3.6%,0.9,19.8%,1.4,-10.1
CC(C)c1nc2sc3c(SCC(N)=O)ncnc3c2c2c1CCC2,-9.4%,26.2,-0.2%,0.9,-21.0%,-5.1,-3.3
O=C1c2oc3ccccc3c(=O)c2C(c2cccnc2)N1Cc1ccco1 (configuration not stated),-3.4%,.,0.8%,1.8,3.7%,1.1,1.9
CCN1CCN(c2oc(/C=C/c3ccccc3)nc2C#N)CC1,-3.0%,8.2,2.3%,-0.1,?,-3.4,-14.4
COc1ccc2oc(=O)cc(CN3CCN(c4ccccc4F)CC3)c2c1,-1.2%,-3.0,2.2%,0.2,5.4%,0.8,-9.3
O=C(CSc1ccc(C(F)(F)F)cc1[N+](=O)[O-])NCCOc1ccccc1,-5.5%,1.7,0.0%,0.7,4.2%,-6.8,3.2
COc1cc(Nc2nc3c(S(=O)(=O)c4ccc(C)c(C)c4)nnn3c3ccsc23)cc(OC)c1,2.1%,-1.3,3.0%,1.3,5.9%,-4.0,2.8
COc1ccccc1C1C(C(=O)c2ccc(C)o2)=C(O)C(=O)N1c1cc(C)on1 (configuration not stated),3.0%,.,0.9%,2.0,-7.0%,-3.6,11.8
Cc1cc(-n2c(SCC(=O)NCCC3=CCCCC3)nc3n[nH]c(C)c3c2=N)ccc1Cl,9.0%,-6.5,-14.8%,2.0,-5.0%,-9.4,-4.0
O=C(O)c1cccc(N2C(=O)c3cc4cccc(Br)c4cc3C2=O)c1,-0.9%,-3.6,-10.6%,2.5,0.2%,-6.8,2.7
CCOc1ccc2oc(=O)cc(CN3CCN(c4ccc(Cl)cc4)CC3)c2c1,-0.3%,7.4,1.9%,3.1,-5.1%,3.8,36.9
COc1ccccc1C(=O)Nc1ccc2c(c1)OCCO2,-2.0%,.,-7.3%,.,2.3%,.,.
CCOC(=O)/C(=N\O)C1=NC(C)(C)Cc2ccccc21,-0.9%,7.3,-7.9%,0.9,-12.0%,3.5,13.7
COc1ccc(-c2cc3c(=O)n(CC(=O)Nc4cccc(Cl)c4)nc(C)n3n2)cc1,-1.6%,-2.3,0.9%,1.1,-2.2%,-5.8,-21.3
CC(C)C(c1nnnn1C1CCCCC1)N1CCc2ccccc2C1 (configuration not stated),-2.7%,0.0,-2.4%,0.5,-2.1%,5.5,-8.6
CC(Sc1cnc2ccccc2n1)C(=O)O (configuration not stated),-2.7%,-0.3,1.0%,1.2,7.5%,1.2,8.6
Cc1nc2cc(F)ccc2n1C1CCN(S(=O)(=O)c2ccccc2)CC1,-9.3%,2.1,-2.2%,-1.4,-10.5%,-1.8,-2.4
COc1ccc(-c2cn3nc(SCC(=O)Nc4ccccc4F)ccc3n2)cc1,-1.4%,5.1,-12.5%,0.9,-12.2%,1.9,-0.9
COc1cccc(NC(=O)Cn2c(=O)n(Cc3ccccc3)c(=O)c3ccccc32)c1,-0.1%,-13.0,-2.6%,3.4,3.7%,0.7,8.9
COC(=O)c1cc2oc3ccccc3c2n1CC(=O)Nc1ccc(Cl)cc1F,3.8%,7.3,-0.6%,2.6,1.0%,-3.5,-0.6
COc1cccc(-c2nc(-c3ccccc3)no2)c1,-7.0%,-4.8,4.3%,0.9,-5.3%,-0.6,-13.2
O=C(OCc1cc([N+](=O)[O-])cc2c1OCOC2)c1ccccn1,-1.6%,-1.0,1.4%,0.8,-3.3%,-1.4,10.4
Cc1cnc(NC(=O)CSc2nnc(-c3cccs3)n2C)s1,3.6%,-8.6,0.0%,-0.2,-0.6%,-3.2,3.1
Cc1nnc(SCC(=O)N2CCC(c3noc4ccc(F)cc34)CC2)s1,-0.8%,-38.4,5.0%,4.4,0.4%,1.9,-12.7
CCCCN(C)CCCNC(=O)c1cc(-c2ccc(Br)s2)nc2ccccc12,-1.1%,-12.1,10.1%,22.1,4.5%,-0.8,-1.5
Cc1ccc(CCNC(=O)C2CCCN(c3nc4ccccc4o3)C2)cc1 (configuration not stated),-2.6%,.,0.5%,5.6,-6.8%,1.1,16.8
c1csc(-c2nc(NCC3CCCO3)c3ccccc3n2)c1 (configuration not stated),-0.4%,-1.2,-2.7%,0.9,9.1%,-7.5,1.2
CCOc1ccccc1C(=O)Nc1ccc(S(=O)(=O)Nc2nccc(C)n2)cc1,-3.9%,0.6,-6.3%,2.4,2.4%,-1.2,-10.7
COc1ccccc1C(=O)Nc1nc2ccc(S(=O)(=O)N3CCCC3)cc2s1,0.3%,-7.8,-8.9%,2.2,3.4%,-1.6,11.2
CCc1ccc(NC(=O)c2cc3c(=O)n(Cc4cccnc4)ccc3nc2C)cc1,-3.1%,7.7,-1.6%,-0.3,1.2%,-3.0,-4.7
CC1CCCN(C(=O)c2cc3c(=O)n4ccccc4nc3s2)C1 (configuration not stated),3.1%,6.9,-1.7%,4.5,9.2%,.,-5.6
COCCn1c(=NC(=O)c2ccc3c(c2)OCCO3)sc2cc(C(=O)OC)ccc21,-8.6%,-4.2,0.1%,0.9,-1.5%,2.5,4.4
O=C(Nc1cccc(-c2nc3ccccc3o2)c1)c1cccnc1,-1.2%,9.9,-8.6%,3.6,?,-0.3,0.3
O=C(COC(=O)c1ccc(O)cc1)Nc1cccc(S(=O)(=O)NC2=NCCC2)c1,-4.4%,.,-0.2%,1.1,-8.7%,-2.4,2.5
O=C1C2ON(c3ccccc3)C(c3ccccn3)C2C(=O)N1c1ccc(Br)cc1 (configuration not stated),0.2%,3.1,-12.0%,7.6,2.8%,5.0,20.1
COc1cccc2cc(C(=O)C3=C(O)C(=O)N(c4cc(C)on4)C3c3cccs3)oc12 (configuration not stated),2.3%,6.5,3.5%,26.0,2.5%,-4.1,-3.9
COc1ccc(NC(=O)CCn2nc(-c3ccc(Cl)cc3)c3ccccc3c2=O)cc1,-0.5%,4.6,1.2%,-0.5,-12.1%,-5.3,5.3
Cc1ccc(SCC(=O)Nc2ccc(S(N)(=O)=O)cc2)cc1,1.2%,-0.5,1.6%,4.2,2.7%,0.3,-1.5
Cc1csc2nc(COC(=O)c3ccc(NC(=O)C(C)Oc4ccccc4)cc3)cc(=O)n12 (configuration not stated),-2.5%,5.2,5.5%,20.1,2.8%,0.2,-11.3
CC(=O)SC(C[N+](=O)[O-])c1cn(C(C)=O)c2ccccc12 (configuration not stated),-12.6%,6.9,-20.3%,3.0,4.0%,-0.6,15.3

Ordered by SMILES length (high to low): part of the list above.
smiles,GRP78 ERSR act,D2 PAM,Vif-A3G inh,D1 ag,Vif-APOBEC3F blk,D1 PAM,D1 antagonist
O=C(CSc1ccc(C(F)(F)F)cc1[N+](=O)[O-])NCCOc1ccccc1,-5.5%,1.7,0.0%,0.7,4.2%,-6.8,3.2
Cc1nc2cc(F)ccc2n1C1CCN(S(=O)(=O)c2ccccc2)CC1,-9.3%,2.1,-2.2%,-1.4,-10.5%,-1.8,-2.4
Cc1ccc(CNc2cc(-c3nn4c(C)nnc4s3)ccc2C)s1,0.4%,.,-11.3%,3.6,-11.3%,2.0,8.4

Continued.
smiles,GRP78 ERSR act,D2 PAM,Vif-A3G inh,D1 ag,Vif-APOBEC3F blk,D1 PAM,D1 antagonist
CCc1ccc(CNC(=O)c2ccc(Cn3c(=O)c4cccn4c4cccnc43)cc2)cc1,-2.0%,-1.5,5.3%,0.8,-0.2%,-0.7,-5.8
CCCc1nc(SCC(=O)NCc2ccco2)c2c(=O)n(C)c(=O)n(C)c2n1,-4.2%,9.6,-18.5%,2.0,-4.0%,-8.2,8.9
O=c1ccc(C(F)(F)F)cn1Cc1cc(=O)n2cc(Br)ccc2n1,-1.5%,17.3,-1.6%,2.3,0.1%,0.4,-4.8
O=C(Nc1nc2ccccc2c(=O)s1)c1ccc(F)cc1Cl,9.2%,1.7,-1.5%,8.0,-4.8%,-6.6,-1.3
CCc1ccc(NC(=O)c2cc3c(=O)n(Cc4cccs4)ccc3nc2C)cc1,0.3%,2.1,-5.5%,20.9,-7.2%,-4.2,-0.5
CC(C)n1c2ccccc2c2nnc(SCC(=O)Nc3ccccc3C(=O)O)nc21,6.4%,9.8,-2.9%,3.0,9.0%,-3.1,0.6
